Assay outcomes deposited in PubChem by National Center for Advancing Translational Sciences (NCATS).
A488 fluor – compound autofluorescence in A488 spectral region; compound autofluorescence, A488 spectral region, dye equivalency; active compounds read high; max dye equivalency, M; actives 0.1% (n = 59,000); AID 591; active = above 10 nM dye equivalent; inconclusive = 1 to 10 nM; inactive = 1 nM or less; about half of its hits are not listed in these tables;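 further: highest value over a series up to 38 µM; compound alone in buffer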
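Readout is A488 dye-equivalent concentration, calibrated by a per-plate six-point Alexa 488 series. Compounds in 100 mM Tris buffer pH 8.0 were incubated 15 min at room temperature. Plates were imaged using 480 nm excitation/540 nm emission filters.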
A647 autofl – A647 region autofluorescence. Compound fluorescence, A647 channel (570/671 nm), Tris buffer. max dye-equivalent concentration, M. 59,000 tested, under 10 active. AID 592; active means above 1 µM dye equivalent; inconclusive means 0.1 to 1 µM; inactive means 0.1 µM or less;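 further: values scaled relative to a standard on each plate; highest value over a series up to 38 µM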
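Buffer was dispensed, compounds and Alexa 647 standards were pin-transferred, and plates sat 15 min at room temperature. Intensity at 570/671 nm was then converted to dye-equivalent concentration using the plate's A647 standard curve.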
TSHR ag – agonists of human thyroid stimulating hormone receptor. P16473. HEK293-CNG-TSHR cells (CNG channel as cAMP sensor), membrane potential dye, cAMP. Potency, µM (series often up to 57.1 µM), inactives show top-dose activation, hits mostly activators. actives 0.48% (n = 73,000). AID 926; active = well fitted activation curve of enough size with the parental cells flat; inconclusive = any curve in the parental cells; inactive = parental cells flat and receptor cells flat or falling; further: potency means the concentration at half of the fitted maximal effect; % of control where 0% means no effect; weak receptor curves with flat parental cells got no call and are not listed
Target sequence (P16473 whole entry, looked up): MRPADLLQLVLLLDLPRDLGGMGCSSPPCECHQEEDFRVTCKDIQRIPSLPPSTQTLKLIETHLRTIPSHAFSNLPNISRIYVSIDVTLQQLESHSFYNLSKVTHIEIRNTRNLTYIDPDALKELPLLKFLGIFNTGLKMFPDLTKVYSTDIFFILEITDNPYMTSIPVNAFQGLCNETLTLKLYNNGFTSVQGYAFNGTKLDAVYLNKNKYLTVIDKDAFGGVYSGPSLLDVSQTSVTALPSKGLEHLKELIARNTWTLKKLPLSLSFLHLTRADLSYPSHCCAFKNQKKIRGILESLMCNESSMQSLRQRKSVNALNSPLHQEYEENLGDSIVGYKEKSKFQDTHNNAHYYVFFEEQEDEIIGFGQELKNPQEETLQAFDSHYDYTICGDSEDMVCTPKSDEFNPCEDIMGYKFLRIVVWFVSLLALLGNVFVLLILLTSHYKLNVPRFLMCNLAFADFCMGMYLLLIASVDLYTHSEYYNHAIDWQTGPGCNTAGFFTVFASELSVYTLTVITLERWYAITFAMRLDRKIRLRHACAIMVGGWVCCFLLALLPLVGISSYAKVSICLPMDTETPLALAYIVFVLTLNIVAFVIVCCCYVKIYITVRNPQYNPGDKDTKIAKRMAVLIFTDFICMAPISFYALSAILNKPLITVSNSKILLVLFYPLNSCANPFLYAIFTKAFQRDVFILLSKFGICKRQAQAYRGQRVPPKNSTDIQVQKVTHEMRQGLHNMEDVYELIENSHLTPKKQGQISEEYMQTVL
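cAMP rise detected as CNG-channel membrane depolarization by fluorescent dye (emission 590 nm), 30 min after compound, following 60 min dye loading containing 100 uM RO 20-1724 at room temperature. Cells: TSHR/CNG HEK 293, with parental CNG HEK 293 as control.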
AID923 – qHTS Assay for Allosteric/Competitive Inhibitors of Caspase-1: Spectroscopic Profiling in AFC Spectral Region; Potency, µM (doses to about 57.5 µM), without a hit: top-dose fluorescence increase, usual class: activators; AID 923, 2007; compound fluorescence, AFC spectral region (405/520 nm); almost no hit is shown here; actives 1.1% (n = 75,000); active means well fitted activation curve with a large enough effect; inconclusive means small, poorly fitted or top-dose-only effect;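 further: potency means the concentration at half of the fitted maximal effect; 0% is about no effect; scaled to a free AFC standard on each plate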
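Titrations up to 57 uM read every 20 sec for 3 min (405/520 nm) with 50 nM caspase 1 and 5 uM Ac-WEHD-AFC, pH 7.5 HEPES buffer. Fluorescence-vs-time intercept gave baseline, scaled against on-plate AFC standard.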
Resorufin fluor – resorufin region autofluorescence; Compound fluorescence, resorufin region 547/598 nm, buffer; active compounds read high; max dye-equivalent concentration, M; actives 0.04% (n = 59,000); active = above 10 nM dye equivalent; inconclusive = 1 to 10 nM; inactive = 1 nM or less; a few of its hits are not listed in these tables; further: highest value over a series up to 38 µM
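Compounds in 100 mM Tris buffer, pH 8.0, incubated 15 min at room temperature, then read with 547 nm excitation and 598 nm emission filters. Fluorescence was converted to dye-equivalent concentration using an on-plate six-point resorufin standard curve.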
Starred values were filed as active, the others as inactive; i = inactive; ? = inconclusive; nt = not tested or not shown; [ ] = remark or other dose.

| canonical_smiles | AID923 | TSHR ag | A647 autofl | Resorufin fluor | A488 fluor |
| --- | --- | --- | --- | --- | --- |
| O=C(NCc1ccco1)c1ccccc1Br | 0.6% | 4% | 8e-09 | i | i |
| CC1(C)Cc2ccccc2C(=NCCCC(=O)O)N1 | -0.3% | 0% | 7.5e-09 | i | i |
| CCOC(=O)C1CCCN(c2cc(C)nc3cc(-c4ccc(F)cc4)nn23)C1 (stereo not drawn) | 7.4% | 5%[11.4 µM] | 6.6e-09 | i | i |
| CC1CCN(c2c(NCc3ccc(C(=O)NCc4cccnc4)cc3)c(=O)c2=O)CC1 | -1.7% | 3% | nt | nt | nt |
| CS(=O)(=O)Nc1ccc(C(=O)NCCC2=CCCCC2)cc1 | -2.8% | 7% | 9.4e-09 | i | i |
| COc1ccc(-c2sccc2C(C)C(=O)O)cc1 (stereo not drawn) | 0.0% | -5% | 8.3e-09 | i | i |
| CCOC(=O)C1=C(c2ccccc2)NC(=O)NC1c1ccc(OCC#N)c(OC)c1 (stereo not drawn) | 1.1% | 5% | 5.2e-09 | i | i |
| CCn1nnc(C(=O)O)c1C(=O)O | nt | nt | 1e-09 | i | i |
| Cc1cc(NC(=O)c2cc(-c3cccs3)nc3ccccc23)no1 | 3.8% | ? | nt | nt | nt |
| N#Cc1c(NC(=O)CN2CCN(S(=O)(=O)c3ccc4c(c3)OCCO4)CC2)sc2c1CCC2 | 2.0% | 17% | 3.1e-08 | i | i |
| CN(C(=O)c1c(Cl)nc2sccn12)C1CCCCC1 | -0.5% | ? | 1e-09 | i | i |
| Cc1csc(SCC(=O)Nc2cccc3nsnc23)n1 | 8.5% | ? | 3.3e-08 | i | i |
| CCCC1(C(=O)O)NC(c2ccc(OC)cc2O)C2C(=O)N(c3ccc(OC)cc3)C(=O)C21 (stereo not drawn) | 1.0% | 0% | nt | nt | nt |
| COC(=O)c1nc(NC(=O)c2ccc(Cl)cc2)n[nH]1 | -2.0% | 4% | 7.8e-09 | i | i |
| COCCNC(=O)C(c1ccc(C)o1)N(CC1CCCO1)C(=O)Cn1nnc2ccccc21 (stereo not drawn) | 1.2% | 3% | 5.4e-08 | i | i |
| CCOC(=O)N1CCN(S(=O)(=O)c2ccc3c(c2)SC(C)C(=O)N3)CC1 (stereo not drawn) | -0.3% | 15% | 2.9e-08 | i | i |

In the list so far, these have a halogen:
| canonical_smiles | AID923 | TSHR ag | A647 autofl | Resorufin fluor | A488 fluor |
| --- | --- | --- | --- | --- | --- |
| O=C(NCc1ccco1)c1ccccc1Br | 0.6% | 4% | 8e-09 | i | i |
| CCOC(=O)C1CCCN(c2cc(C)nc3cc(-c4ccc(F)cc4)nn23)C1 (stereo not drawn) | 7.4% | 5%[11.4 µM] | 6.6e-09 | i | i |
| CN(C(=O)c1c(Cl)nc2sccn12)C1CCCCC1 | -0.5% | ? | 1e-09 | i | i |
| COC(=O)c1nc(NC(=O)c2ccc(Cl)cc2)n[nH]1 | -2.0% | 4% | 7.8e-09 | i | i |

Remaining list, next part.
| canonical_smiles | AID923 | TSHR ag | A647 autofl | Resorufin fluor | A488 fluor |
| --- | --- | --- | --- | --- | --- |
| CN(C)S(=O)(=O)c1ccc(C(=O)NCc2cccs2)cc1 | 0.0% | 3% | 3.1e-08 | i | i |
| O=C(O)CS(=O)(=O)c1ccc(Oc2ccc(S(=O)(=O)CC(=O)O)cc2)cc1 | -0.1% | 14% | 1e-09 | i | i |
| CC(C)=CC(=O)Nc1ccc2c(c1)OCO2 | -0.1% | -5% | 8e-09 | i | i |
| O=C(COc1ccc(F)cc1Br)NCc1ccccn1 | 2.3% | 0% | 1.7e-08 | i | i |
| CCCCCCCC/C=C\CCCCCCCC(=O)NCCO | -8.7% | ? | 1e-09 | i | i |
| Cc1cccc(OCCOCCSc2ncccn2)c1 | -1.0% | 9% | nt | nt | nt |
| N#CCCN1CCN(C(CNS(=O)(=O)c2ccc(Cl)cc2)c2ccccc2)CC1 (stereo not drawn) | 2.7% | -4% | nt | nt | nt |
| O=C(COC(=O)c1cccnc1Nc1ccccc1F)NCc1ccc2c(c1)OCO2 | 0.4% | nt | 2.7e-08 | i | i |
| COCCCN1C(=O)C(O)=C(C(=O)c2ccco2)C1c1ccc(Br)cc1 (stereo not drawn) | nt | nt | 3.6e-08 | i | i |
| Cc1cc(C)nc(-n2nc(C)cc2NC(=O)COC(=O)CCC(=O)c2cccs2)n1 | 0.8% | 4% | 1.1e-09 | i | i |
| O=C(c1ccco1)N1CCN(C(=O)C2Cc3ccccc3CN2S(=O)(=O)c2ccc(F)cc2)CC1 (stereo not drawn) | -1.4% | 9% | 1e-09 | i | i |
| O=C(CN1C(=O)c2cccc3cccc1c23)N1CCc2ccccc2C1 | 0.0% | -1% | 1e-09 | i | i |
| CC(NC(=O)Cn1cnnn1)C12CC3CC(CC(C3)C1)C2 (stereo not drawn) | 0.8% | 2% | 1e-09 | i | i |
| O=C(NCSc1ccncn1)c1ccccc1 | 1.3% | 2% | 1e-09 | i | i |
| Cc1cccc(NC(=O)NCCN2C(=O)C3C4C=CC(C4)C3C2=O)c1 (stereo not drawn) | 2.5% | -6% | nt | nt | nt |
| COc1ccc(CCNC(=O)c2cc(-c3cccs3)on2)cc1OC | 0.0% | 1% | 4.6e-09 | i | i |
| CN1CCN(CCCCOc2ccc(F)cc2)CC1 | nt | nt | 1e-09 | i | i |
| Cc1ccccc1-c1nc2cc(N)ccc2o1 | 2.7% | nt | 2.9e-09 | i | i |
| CCN(CC)CCCN1C(=O)C(O)=C(C(=O)c2cc3ccccc3o2)C1c1ccccn1 (stereo not drawn) | -2.3% | 6% | 3.9e-09 | i | i |
| COc1ccc(Cn2nnnc2C(c2cccs2)N2CCN(c3ccccc3)CC2)cc1 (stereo not drawn) | 0.3% | ? | 1e-09 | i | i |
| CCC(=O)N1CCc2cc(S(=O)(=O)NC(C(=O)N3CCc4ccccc4C3)C(C)C)ccc21 (stereo not drawn) | 2.3% | 4% | 2.7e-08 | i | i |
| O=c1c2c3nc4ccccc4nc3n(/N=C/c3cccs3)c2ncn1-c1ccccc1 | 11% | -17% | 1e-09 | i | i |
| O=[N+]([O-])c1cccc2c(Br)[nH]nc12 | -2.5% | -8% | 4.6e-09 | i | i |
| C=CCNC(=O)CN1CCC(O)(c2ccccc2)CC1 | -1.9% | 0% | 7e-09 | i | i |
| COc1cc2c(C(=O)NCc3ccccn3)cn(CC(C)C)c(=O)c2cc1OC | -0.3% | 6% | nt | nt | nt |
| Cc1cc(OCC(=O)N(C)C)c2c(-c3ccccc3)cc(=O)oc2c1 | -1.4% | 1% | nt | nt | nt |
| COC(=O)[C@@]1(Cc2ccc(F)cc2)[C@H]2c3cc(C(=O)N4CCCC4)n(Cc4ccc(C)o4)c3C[C@H]2CN1C(=O)c1ccccc1 | 0.6% | ? | nt | nt | nt |
| CCCSc1nc(C)cc(=O)[nH]1 | 2.7% | 1% | 4.2e-08 | i | i |
| CCN(CC)S(=O)(=O)c1cccc(C(=O)OCc2cc(=O)n3nc(C)sc3n2)c1 | 0.8% | 5% | 1e-09 | i | i |
| CCc1ccc(OCC(=O)Nc2ccc(-c3nc4ccccc4o3)c(O)c2)cc1 | 3.6% | -4% | nt | nt | nt |
| CCC(c1nnnn1Cc1ccco1)N(Cc1cc2cc(C)cc(C)c2[nH]c1=O)CC1CCCO1 (stereo not drawn) | 13% | ? | 1.3e-08 | i | i |
| CC(=O)Nc1cccc(NC(=O)c2ccco2)c1 | 0.6% | 0% | nt | nt | nt |
| COc1ccc2cc(S(=O)(=O)N3CCOCC3)ccc2c1 | 15% | ? | nt | nt | nt |
| CC(=O)C1=C(C)Nc2ncnn2C1c1ccccc1Cl (stereo not drawn) | 1.9% | 1%[11.4 µM] | 1e-09 | i | i |
| Nc1nc(CSc2nc3ccccc3[nH]2)nc(N2CCOCC2)n1 | -3.8% | 3% | 3.3e-09 | i | i |
| Cc1cccc(N2CCN(S(=O)(=O)c3ccc4c(c3)c(=O)n(C)c(=O)n4C)CC2C)c1 (stereo not drawn) | -1.8% | 10% | 2e-09 | i | i |
| CCn1c(C)csc1=NC(=O)c1ccccc1O | -1.1% | -5%[11.4 µM] | 1e-09 | i | i |
| C#CC(C)(CC)NC(=O)c1cc(OC)c(OC)c(OC)c1 (stereo not drawn) | 0.5% | 3% | 1e-09 | i | i |
| N#Cc1cccc(NC(=O)N2CC[C@@]3(CCCN(S(=O)(=O)c4ccccc4)C3)C2)c1 | 0.3% | nt | 1e-09 | i | i |
| CCCCOC(=O)Cn1c(=N)n(CCC)c2ccccc21 | 0.4% | ? | 1e-08 | i | i |
| Cc1cccc(NS(=O)(=O)c2cccs2)n1 | -0.6% | -3% | 2.8e-08 | i | i |
| O=C(COC(=O)c1n[nH]c2ccccc12)NC(=O)NCc1ccco1 | 1.0% | -10% | 6.9e-09 | i | i |
| Cc1ccc(O)c(NC(=O)c2cccc(NC(=O)c3ccco3)c2)c1 | 0.2% | -3% | 4.3e-08 | i | i |
| C#CCOC(=O)NC(/C=C/CCCC)c1ccccc1 (stereo not drawn) | 1.5% | ? | nt | nt | nt |
| COC(=O)N1CCC[C@@]2(CCN(C(=O)Nc3ccccc3)C2)C1 | 12% | 12% | 8.2e-09 | i | i |
| O=C(NCCCN1CCOCC1)c1cc(-c2cccs2)on1 | -0.3% | 1% | 6.5e-09 | i | i |
| Cc1ccc(Cn2ccc(NC(=O)c3cc(-c4ccco4)on3)n2)cc1 | -0.7% | 12% | 1.6e-08 | i | i |
| CC(=O)Nc1ccc(S(=O)(=O)CCC#N)cc1 | 1.8% | -3% | 1e-09 | i | i |
| CCCc1cc(COC)c(C#N)c(=O)[nH]1 | -1.5%[11.5 µM] | -1%[11.4 µM] | 1e-09 | i | i |
| CN(C)CCN1C(=O)CC[C@]2(C)C1=CC[C@@H]1[C@@H]2CC[C@]2(C)[C@H]1CC[C@]2(C)O | -3.6%[11.5 µM] | 2%[11.4 µM] | 4.4e-08 | i | i |
| O=C(CCN1C(=O)C2C3C=CC(C3)C2C1=O)Nc1c(F)cc(F)cc1Br (stereo not drawn) | 2.2% | 5% | 7.8e-09 | i | i |
| CC(OC(=O)c1cccs1)C(=O)NCc1ccc2c(c1)OCO2 (stereo not drawn) | -1.0% | 23% | 5.2e-09 | i | i |
| COCC(=O)Nc1nnc(Cc2ccc(OC)c(OC)c2)s1 | 0.6% | 3% | 1e-09 | i | i |
| CCn1c(SCC(=O)Nc2cccc(C)c2)nc2c(c1=O)SC(C)C2 (stereo not drawn) | -2.0% | 11% | nt | nt | nt |
| NNS(=O)(=O)c1cc(C(=O)O)cc(C(=O)O)c1 | -0.5%[11.5 µM] | -4%[11.4 µM] | 4.1e-08 | i | i |
| CC(=O)C(Sc1ncnc2c1nnn2-c1ccc(F)cc1)C(=O)N(C)C (stereo not drawn) | 4.0% | 5% | nt | nt | nt |

The list goes on.
| canonical_smiles | AID923 | TSHR ag | A647 autofl | Resorufin fluor | A488 fluor |
| --- | --- | --- | --- | --- | --- |
| CCOC(=O)c1c(C)[nH]c(C(=O)CN2CC(C)OC(C)C2)c1C (stereo not drawn) | -0.6% | 7% | 7.5e-09 | i | i |
| N#Cc1c(SCC(=O)Nc2nccs2)nc2c(c1-c1ccco1)CCCC2 | -0.5% | 17% | 1e-09 | i | i |
| CCCCN1C(=O)c2ccc(C(=O)Nc3cccnc3)cc2C1=O | 1.5% | -5% | 1e-09 | i | i |
| COc1ccc(NC(=O)CN2C(=O)CC(C)(C)S(=O)(=O)c3ccccc32)cc1 | -0.5% | -2% | nt | nt | nt |
| C=CCn1c(C(C)NC(=O)CC)nc2ccccc21 (stereo not drawn) | 0.6% | 2% | 2.2e-09 | i | i |
| Cc1ccc(-n2nnnc2SCC(N)=O)c(C)c1 | -1.3% | 20% | 1.6e-08 | i | i |

An excerpt; the hit share may differ from the screen's.
